Mtb hypoxia rep = Mtb hypoxia fluorescent reporter inhibition | M. tuberculosis hypoxia-regulated fluorescent reporter, fluorescence | 300,000 tested, 0.1% active | fluorescence inhibition, % (concentration not given with the values);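 active = 35 to 45% if threefold the growth effect, above 45% if 1.5-fold the growth effect; inactive = the rest, general growth blockers included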;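 note: wells of about 50 µL received 100 nL stock; 0% = vehicle wells and 100% = reference inhibitor wells; whole bacteria with a GFP reporter of the hypoxia response; strong numbers were not always called active; many hits fall short of the cut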
BJeLR viability = kills HRASV12-expressing BJeLR cells | BJeLR (HRASV12) viability, CellTiter-Glo ATP luminescence, 48 h; reference of the scale not given here | inhibition, % (test concentration not listed) | 300,000 tested, 0.17% active | AID 1554;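 active = replicate mean above 50%; inconclusive = above 50% but judged a plate artefact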;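 note: 50 nL library stock added to about 25 µL; numbers are from one replicate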
Sa RN4220 lethal = S. aureus RN4220 growth inhibition; OD600, 16 h; inhibition, % (concentration not given with the values); 330,000 tested, 0.33% active; AID 1259311;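 active = z-score of -3 or lower and OD600 up to 0.18 on both plates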;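 note: plate controls were untreated cells for no effect and reference antibiotic for full effect; stock transfer was 100 nL into about 80 µL; one replicate is shown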
ugtP null kill = kills S. aureus RN4220 lacking UgtP. S. aureus RN4220 ugtP deletion, OD600 growth, 16 h; some inactives read as strong as hits. growth inhibition, % (test concentration not listed). 330,000 tested, 0.54% active;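 active = z-score under -3 and OD600 up to 0.15 on both plates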;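 note: plate controls were untreated wells for no effect and antibiotic for full effect; wells of about 80 µL received 100 nL stock; the first replicate is given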
Autofluor counter = flagged as autofluorescent in microsphere protease counterscreen; compound autofluorescence counterscreen, microsphere flow cytometry; active compounds read high; fluorescence intensity (test concentration not listed); 360,000 tested, 3.1% active;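 active = at least 3 SD above the mean of all compounds, about 16000 in these data; inconclusive = too few beads counted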;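 note: 100 nL of 1 mM stock went into each well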
PrP 5UTR inh = inhibition of PrP 5' UTR reporter expression | AID 488862 | cell-based PrP 5' UTR mRNA reporter, plate reader | 340,000 tested, 0.35% active | inhibition, % (test concentration not listed);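 active = every replicate at 50% or more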;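 note: 0 = median of the neutral control wells; tested in H4 reporter cells; numbers are from one replicate; inactives centre near -14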
Mtb hypoxia rep growth = second read-out of Mtb hypoxia rep, no call of its own (marks repeat the call); growth inhibition, %; measured here: M. tuberculosis growth (absorbance);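 0% = vehicle and 100% = reference antibiotic; read after six days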
Starred values were filed as active, the others as inactive; ? = inconclusive; nt = not tested or not shown; & = joins results of further samples.

SMILES	Mtb hypoxia rep	Mtb hypoxia rep growth	BJeLR viability	Sa RN4220 lethal	ugtP null kill	Autofluor counter	PrP 5UTR inh
NC(N)=S	-4	0	nt	0.5	1	4990	-32
O=C(CS(=O)(=O)Cc1ccccc1)N1CCN(Cc2ccc3c(c2)OCO3)CC1	9	3	-5	2.2	1	4510	-15
NS(=O)(=O)c1cc(Cl)c(Cl)c(S(N)(=O)=O)c1	-2	-4	nt	7.7	3	5964	-26
CCOC(=O)C1CCCN(C(=S)Nc2cc(C)cc(C)c2)C1 (centres undefined)	3	0	-6	3.1	7	4334	-22
CCCCCCSc1cc(-c2nc3ccc(C)cn3c2NCc2ccccc2)ccc1OC	4	7	-4	14	13	2527&6345	5
COc1ccc(CNS(=O)(=O)c2cc3c(cc2Cl)NC(=O)CO3)cc1	1	-2	-2	4.1	3	6295	-19
Cc1ccc(C(=O)CCC(=O)OC(C)C(=O)NC2CCCCC2C)cc1 (centres undefined)	10	2	nt	9.8	17	2908	11
Cn1cc(CN2C[C@H]3CC[C@H]2C3)c(-c2ccccc2F)n1	10	-1	-5	1.1	4	2924	-4
O=C(O)c1cccc(Nc2ccnc(Nc3cccc(C(=O)O)c3)n2)c1	-1	8	-1	3.2	14	3148	33
C=CCSc1nc(O)c(CC)c(=O)n1C(C)CC (centres undefined)	7	8	4	5.3	11	24804*	-23
COc1cc2[nH]c(=O)n(CCC(=O)N3CCN(Cc4ccc5c(c4)OCO5)CC3)c(=O)c2cc1OC	-3	-4	-14	6.5	-1	4911	9
COCCCn1c(=NC(C)=O)c(C#N)cc2c(=O)n3cccc(C)c3nc21	2	9	-8	1.0	1	4502	nt
Cc1cc(NC(=O)CS(=O)(=O)c2cn(C)c3ccccc23)no1	1	1	8	24	20	5225	-10
CCCn1c(NC(=O)C2COc3ccccc3O2)nc2ccccc21 (centres undefined)	9	8	7	0.4	-2	3808	4
O=C(CSc1nc2scc(-c3ccco3)c2c(=O)n1-c1ccccc1)NCC1CCCO1 (centres undefined)	16	8	-9	1.2	9	10072	-13
CC1(C)Cc2c(C#N)c(SCCC#N)nc(N3CCOCC3)c2CS1	15	2	-10	2.7	2	3896	3
COc1ccccc1C(CNC(=O)COc1ccccc1C)N1CCCC1 (centres undefined)	3	0	9	3.4	9	?	-15
CCOC(=O)C1=C(C)N=C2c3ccccc3C(=O)C2C1c1ccc(Br)cc1 (centres undefined)	1	11	-12	84	39	nt	nt
COC(=O)c1ccc(C(=O)OC)c(NC(=S)N2CCOCC2)c1	0	-8	8	-2.1	4	4288	-27
CN1CCN(CCCNC(=O)CCC(=O)N2CCOc3ccccc32)CC1	4	1	17	4.6	5	5734	-17

13 entries from above, as a markdown table.
| Structure | Mtb hypoxia rep | Mtb hypoxia rep growth | BJeLR viability | Sa RN4220 lethal | ugtP null kill | Autofluor counter | PrP 5UTR inh |
| --- | --- | --- | --- | --- | --- | --- | --- |
| Cn1cc(CN2C[C@H]3CC[C@H]2C3)c(-c2ccccc2F)n1 | 10 | -1 | -5 | 1.1 | 4 | 2924 | -4 |
| O=C(O)c1cccc(Nc2ccnc(Nc3cccc(C(=O)O)c3)n2)c1 | -1 | 8 | -1 | 3.2 | 14 | 3148 | 33 |
| C=CCSc1nc(O)c(CC)c(=O)n1C(C)CC (centres undefined) | 7 | 8 | 4 | 5.3 | 11 | 24804* | -23 |
| COc1cc2[nH]c(=O)n(CCC(=O)N3CCN(Cc4ccc5c(c4)OCO5)CC3)c(=O)c2cc1OC | -3 | -4 | -14 | 6.5 | -1 | 4911 | 9 |
| COCCCn1c(=NC(C)=O)c(C#N)cc2c(=O)n3cccc(C)c3nc21 | 2 | 9 | -8 | 1.0 | 1 | 4502 | nt |
| Cc1cc(NC(=O)CS(=O)(=O)c2cn(C)c3ccccc23)no1 | 1 | 1 | 8 | 24 | 20 | 5225 | -10 |
| CCCn1c(NC(=O)C2COc3ccccc3O2)nc2ccccc21 (centres undefined) | 9 | 8 | 7 | 0.4 | -2 | 3808 | 4 |
| O=C(CSc1nc2scc(-c3ccco3)c2c(=O)n1-c1ccccc1)NCC1CCCO1 (centres undefined) | 16 | 8 | -9 | 1.2 | 9 | 10072 | -13 |
| CC1(C)Cc2c(C#N)c(SCCC#N)nc(N3CCOCC3)c2CS1 | 15 | 2 | -10 | 2.7 | 2 | 3896 | 3 |
| COc1ccccc1C(CNC(=O)COc1ccccc1C)N1CCCC1 (centres undefined) | 3 | 0 | 9 | 3.4 | 9 | ? | -15 |
| CCOC(=O)C1=C(C)N=C2c3ccccc3C(=O)C2C1c1ccc(Br)cc1 (centres undefined) | 1 | 11 | -12 | 84 | 39 | nt | nt |
| COC(=O)c1ccc(C(=O)OC)c(NC(=S)N2CCOCC2)c1 | 0 | -8 | 8 | -2.1 | 4 | 4288 | -27 |
| CN1CCN(CCCNC(=O)CCC(=O)N2CCOc3ccccc32)CC1 | 4 | 1 | 17 | 4.6 | 5 | 5734 | -17 |

Carrying on:
SMILES	Mtb hypoxia rep	Mtb hypoxia rep growth	BJeLR viability	Sa RN4220 lethal	ugtP null kill	Autofluor counter	PrP 5UTR inh
Cc1[nH]c(-c2ccc(F)cc2)cc1C(=O)N1CCN(c2cccc(Cl)c2)CC1	-5	5	7	-4.2	-6	3552	-6
CN(C)S(=O)(=O)c1ccc(Cl)c(C(=O)Nc2ccccc2[N+](=O)[O-])c1	-1	-2	1	3.3	-4	2389	-1
OC(CN1CCCCC1)Cn1c2ccccc2c2cc(Br)ccc21 (centres undefined)	0	17	7	-5.4	-4	3737	-4
Cc1cccc(N2C(=O)c3ccccc3C2=O)n1	15	3	12	1.9	4	3743	-15
O=[N+]([O-])c1ccc(C=NNc2nc(NCc3ccccc3)nc(N3CCOCC3)n2)cc1	-2	8	nt	1.3	-7	nt	nt
Cc1cc(C(=O)NNC(=O)c2ccc(Cl)cc2)c2ccccc2n1	5	-6	nt	6.8	4	6340	-19
Cn1c(CNC(=O)CNS(=O)(=O)c2ccc(Cl)cc2)cc(=O)n(C)c1=O	2	8	4	3.1	1	5875	-11
CC(C)Cc1oc(C(=O)O)cc1CN1CCOCC1	10	7	5	4.3	3	2385	-16
COc1ccc(NC(=O)C2CC(c3ccc(Cl)cc3)=NO2)cc1OC (centres undefined)	nt	nt	7	nt	nt	4070	-2
CCN(CC)S(=O)(=O)c1ccc(N2CC(C(=O)N3CCOCC3)CC2=O)cc1 (centres undefined)	22	8	nt	0.4	2	4312	-7
O=C(N/C(=C\c1ccccc1Cl)C(=O)N1CCOCC1)c1ccc([N+](=O)[O-])cc1	-9	6	-7	3.9	3	3819	-4
NCCCCCC(=O)OC1N=C(c2ccccc2Cl)c2cc(Br)ccc2NC1=O (centres undefined)	5	14	1	7.0	11	3383	-6
Cn1cc(C(C[N+](=O)[O-])c2ccccc2)c2ccccc21 (centres undefined)	4	8	2	-2.9	9	4050	-25
COc1cc(C(=O)NCCOc2cccc3cccnc23)cc(OC)c1OC	2	8	9	2.8	5	4159	-12
O=C1/C(=C\c2ccc3c(c2)OCO3)CCC/C1=C/c1ccc2c(c1)OCO2	8	14	8	39	-10	4214	-22
COc1ccc(C=NNC(=O)c2cc[n+]([O-])cc2)cc1OC	-5	9	nt	-2.7	-1	nt	nt
COC(=O)c1cccc(CSc2nc(-c3ccccc3)c(C#N)c(=O)[nH]2)c1	-4	-1	-9	17	7	4011	-13
Cc1oc(-c2ccccc2Cl)nc1CSCC(=O)NC1CC1	5	14	-1	6.3	3	6028	-27
COc1ccc(CCN2CC(C(=O)NCCc3cn[nH]c3)CCC2=O)cc1 (centres undefined)	-3	-4	-2	6.4	13	3318	-1
CCC(O)(CC)C(=O)NN(C(=O)CCl)c1ccccc1	17	21	-6	1.3	0	1893	-16
Cc1cc(Nc2ccc(F)cc2F)n2ncnc2n1	nt	nt	-7	1.0	4	5291	-20
CC(=O)Nc1cccc(C(=O)Nc2ccccc2N2CCOCC2)c1	5	4	9	0.5	-5	9360	-9
C=CCNS(=O)(=O)c1cccc2cc(C(=O)O)c(O)cc12	-2	5	12	2.1	-3	4683	-17
CC12CN3CN(C1)CC(c1ccccc1)(C3)C2=O	9	14	8	-8.5	-5	3575	-14
CCN(C(=O)CSc1cc(C)c2ccc(OC)cc2n1)C1CCS(=O)(=O)C1 (centres undefined)	-5	-4	-4	2.1	-2	4753	-9
CC(C)=CCSc1nnc([C@@H](NC(=O)OC(C)(C)C)C(C)C)o1	-3	13	4	2.2	1	22591*	-34
FC(F)(F)c1ccccc1/C=N/Nc1ccccn1	nt	nt	-14	nt	nt	3311	-17
S=C(NCCCCNC(=S)NCc1ccccc1)NCc1ccccc1	0	3	-6	-2.5	10	4056	-13
CCN(C(=O)COC(=O)c1[nH]c(=O)[nH]c(=O)c1N)c1ccccc1	10	7	1	4.3	11	5606	-18
O=C(c1ccco1)c1n[nH]nc1-c1ccccc1	8	9	2	-8.4	1	3175	0
Cc1ccc(C(=O)NCC2CCCN2S(=O)(=O)c2ccc(C)cc2)cc1 (centres undefined)	-7	4	-9	3.4	-1	6664	-18
NNC(=O)c1ccc(Cn2cc(Br)cn2)cc1	4	5	-3	4.8	7	2153	-21
O=S(=O)(c1ccc2c(c1)OCO2)N1CCN(c2nnnn2-c2ccccc2)CC1	2	2	-12	3.1	-3	11525	-35
O=c1nc2ccccc2c2n1CC(CN1CCN(C(c3ccccc3)c3ccccc3)CC1)N2 (centres undefined)	10	13	3	2.1	-1	3356	0
O=C(Nc1ccccn1)c1cc2ccccc2cc1O	1	4	-14	-0.1	-6	4970	-148
CCOC(=O)N1CCC(N2C(=O)c3ccccc3C2Nc2cc(C(=O)OC)cc(C(=O)OC)c2)CC1 (centres undefined)	-1	10	-8	-2.8	-5	5973	-5
O=C(COc1ccc(Cl)cc1Cl)c1ccc[nH]1	4	-4	-8	-3.2	5	4098	-70
CC(=O)Nc1ccc(C(=O)N(C)C(C(=O)Nc2ccccc2)c2ccccn2)cc1 (centres undefined)	4	12	1	1.9	-4	2340	-2
CCCCNc1ccc2c3c(cccc13)C(=O)N(CCCC)C2=O	-42	12	1	-2.3	-7	11199	-5
CN(C(=O)c1cccc(NC(=O)Cc2ccc(NC(=O)C3CCCN(C(=O)C4CCCC4)C3)cc2)c1)C1CC1 (centres undefined)	-2	4	nt	2.6	-3	3441	-14
Cc1cc2nn(-c3ccc(Cl)cc3)nc2cc1N	nt	nt	-7	nt	nt	2855	-8
Cc1occc1C(=O)N1CCN(Cc2ccccc2)CC1	20	4	-3	3.3	5	4581	-28
Cc1c(Cl)cccc1NC(=O)Nc1c(C)n(C)n(-c2ccccc2)c1=O	1	1	10	-0.6	1	5512	-14
CC(C1CCN(Cc2cn(C)nc2-c2cccc(Cl)c2)CC1)N1CCOCC1 (centres undefined)	3	-3	6	0.5	4	5787	-18
COC(=O)c1ccc(NC(=O)Cn2c(-c3nonc3N)nc3ccccc32)cc1	2	9	3	0.0	-16	4947	-17
Cc1ccc(N2C(=O)C(CN3CCCC3)C2c2ccccc2)cc1 (centres undefined)	2	10	5	1.0	14	4715	-17
CCOC(=O)c1nnn(-c2nc(OC)nc(N3CCCC3)n2)c1-c1ccccc1	-82	-22	4	-2.3	-2	3404	-19
CC(C)NC(=O)CCCc1c[nH]c2ccccc12	2	6	2	3.6	0	4593	-7
COC(=O)Cc1cc(=O)n2[nH]c(C)cc2n1	nt	nt	7	-3.4	-3	4680	9
CC(=NNC(=O)CCc1c(C)n[nH]c1C)c1cccc([N+](=O)[O-])c1	-9	-15	nt	3.7	7	nt	nt
Cc1cccc(N(C)c2cc(C)nc3ncnn23)c1	nt	nt	-6	-0.2	0	4155	0
CC(=O)Oc1ccc2c(c1)OC(c1ccccc1)CC21CC(C)(C)NC(=O)N1 (centres undefined)	-2	-10	-5	64	7	2331	-7
O=c1onc(-c2ccc(Cl)cc2)n1Cc1ccc(F)cc1	15	1	10	4.5	9	11300	-22
O=C(c1ccc(Cl)cc1)c1oc2ccccc2c1CS(=O)c1ccc(Cl)cc1 (centres undefined)	3	4	6	3.2	-2	22309*	-29
O=C(/C=C/c1cccc([N+](=O)[O-])c1)N1CCN(Cc2ccc3c(c2)OCO3)CC1	4	4	-3	1.5	5	2489	-19

Rows were taken by chance, and some 4% of all compounds hit somewhere here.
